miR-21 FLuc: raises the signal of a miR-21 reporter; HeLa miR-21 FLuc reporter, luciferase, 48 h; Potency, µM (highest dose often 38.3 µM), for inactives: at the top dose reporter change, positive = more light; 340,000 tested, under 10 active; AID 2288; active = well fitted rising curve with a large enough effect; inconclusive = small, poorly fitted or top-dose-only effect; inactive = no such curve, though single readings can be large or run the other way;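 also: % of control where 0% means no effect; miR-21 action dims this reporter so a rising signal means less miR-21 action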
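Using DMEM plus 10% FBS, HeLa miR-21-FLuc cells are incubated with test compounds (final up to about 40uM) for 48 hours; firefly luciferase signal is then imaged following reagent-mediated lysis.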
Rango-impB inh: inhibitors of Rango-importin beta complex formation; Q14974; Rango CFP/YFP FRET sensor + importin beta, 45 min; Potency, µM (titrated, usually from 92.2 µM), inactives show at the top dose inhibition of complex formation; actives 0.031% (n = 340,000); AID 540263; active = rising FRET ratio curve, often small or poorly fitted; inconclusive = mostly compound fluorescence or quenching in the first reads; inactive = flat curves in all reads;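 also: potency is read from the fitted curve at half-maximal effect; 0% = DMSO wells and 100% = buffer wells lacking importin beta; nearly all actives have a fitted effect of over 15% in size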
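Inhibition scored from the CFP 486 nm/YFP 530 nm FRET ratio 45 min after adding 0.125 microM importin beta to 50 nM Rango biosensor preincubated 5 min with compound (room temperature, PBS with DTT, Tween-20, BSA). No-importin wells as positive control.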
Rango release inh: inhibitors of RanGTP-induced Rango-importin beta complex dissociation; Potency, µM (highest dose often 46.1 µM), for inactives: top-dose activity change, negative = inhibition; actives 0.071% (n = 340,000); Biochemical FRET Rango-importin beta, RanGTP-induced dissociation; O95149+P62826; active means falling FRET ratio curve, often poorly fitted, with flat reads before Ran was added; inconclusive means other falling curves, or compound fluorescence or quenching; inactive means flat or rising ratio curve;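 also: potency is read from the fitted curve at half-maximal effect; % of control where 0% means no effect; nearly all actives have a fitted effect of over 45% in size; -100% = wells without RanGTP and RCC1; the record marks most hits as doubtful in a second field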
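Recombinant Rango FRET biosensor (EYFP–snurportin 1 IBB–cerulean CFP10) at 0.1 uM premixed with 0.25 uM importin beta in PBS, 1 mM DTT, 0.02% Tween-20, 0.1% BSA. Compound added 5 min; RanGTP-RCC1 (0.6 uM Ran, 2 mM GTP, 0.2 uM RCC1) then triggers release, read at 45 min.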
GLA inh pH 4.5: alpha-galactosidase A (human) inhibition, pH 4.5 | P06280 | 230,000 tested, under 10 active | activity change, negative = inhibition, % at 105 µM | purified enzyme, 4-MU-alpha-Gal fluorescence, pH 4.5; inconclusive = small, poorly fitted or top-dose-only inhibition, or a rising curve; inactive = flat fitted curve, though single readings scatter; no compound was filed as active;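 also: 0% = full activity with enzyme and -100% = basal without enzyme; dose as in the result columns while the protocol names 77 µM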
Target sequence (P06280 whole entry, looked up): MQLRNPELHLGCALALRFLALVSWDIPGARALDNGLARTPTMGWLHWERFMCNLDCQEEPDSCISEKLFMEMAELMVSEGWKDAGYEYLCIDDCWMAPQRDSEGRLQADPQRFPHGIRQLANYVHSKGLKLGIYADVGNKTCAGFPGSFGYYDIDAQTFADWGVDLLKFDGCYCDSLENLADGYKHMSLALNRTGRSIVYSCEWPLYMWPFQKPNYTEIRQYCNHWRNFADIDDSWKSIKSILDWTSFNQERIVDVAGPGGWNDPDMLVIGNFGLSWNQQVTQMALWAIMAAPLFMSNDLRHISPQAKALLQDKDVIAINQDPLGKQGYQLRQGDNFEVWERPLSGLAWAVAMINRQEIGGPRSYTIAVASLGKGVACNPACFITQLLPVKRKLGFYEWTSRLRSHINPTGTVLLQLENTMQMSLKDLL
An asterisk follows results filed as active; ? = inconclusive; / = no result given. The list is partial; rates above refer to the full screens.

Rango release inh,GLA inh pH 4.5,Rango-impB inh,miR-21 FLuc,compound
4.3%,/,-3.5%,0.4%,COc1cc(C(=O)NCCNC(=O)c2cc(OC)c(C)c(OC)c2)cc(OC)c1C
13.9%,5.5,-0.5%,2.7%,CCOc1cc(/C=C(/NC(C)=O)C(=O)O)cc(Cl)c1OCc1cccc(Br)c1
9.1%,-7.7,2.6%,-5.7%,Cc1cccc(Cl)c1NC(=S)NCCc1ccccn1
-0.7%,/,3.8%,-11.0%,COc1ccc(C(=O)NC(=S)Nc2cccnc2)cc1Cl
1.4%,4.5,-1.6%,1.2%,C/C(N)=C(/C#N)C(=O)COC(=O)Cc1coc2ccc3ccccc3c12
4.0%,-3.9,1.4%,-5.2%,CSc1cc(-c2ccc(Cl)cc2)c(C(=O)N2CCCC2)s1
-2.2%,-0.3,0.9%,0.4%,CCOP(=O)(OCC)C(NC(C)=O)C(=O)c1ccccc1 (stereo unspecified)
?,/,?,1.2%,CSc1ccccc1C(=O)N1CCC(CCC(=O)NC2CC2)CC1
15.2%,/,0.2%,4.4%,COc1ccc(-c2cn[nH]c2-c2ccc(OCC(=O)NN)cc2O)cc1OC
-6.6%,4.9,-1.2%,6.7%,COc1ccc(N2CCN(C(=O)CCNC(=O)c3ccc(C(C)(C)C)cc3)CC2)cc1
-0.6%,/,-4.4%,/,CC1(c2ccccc2)NC(=O)N(CC(=O)NNC(=O)c2ccccc2F)C1=O (stereo unspecified)
-13.0%,-3.0,-3.7%,5.1%,Cc1nnc(N/N=C/C2CC=CCC2)[nH]c1=O (stereo unspecified)
0.0%,-4.6,0.0%,2.5%,Cc1ccc(CCNC(=O)CS(=O)Cc2nc(-c3cccs3)oc2C)cc1 (stereo unspecified)
?,/,4.1%,3.0%,CCCCOc1cccc(/C=C(\C#N)C(=O)NC2CC2)c1
-10.8%,1.8,0.4%,0.0%,O=C(Nc1ccc(F)cc1F)Nc1csc2ccccc12
-12.7%,/,-0.7%,-5.0%,Cc1cccc(C(=O)Nc2ccc(S(=O)(=O)Nc3nc(C)cc(C)n3)cc2)c1
-20.4%,5.2,0.2%,0.6%,CNC(=O)NC(=O)COC(=O)/C=C/c1cccc(Br)c1
-14.2%,-5.3,-2.5%,-6.4%,Cc1[nH]c2ccccc2c1C(=O)CN1CCCC1
-3.9%,1.4,-4.6%,-20.7%,O=C1c2ccccc2C(=O)C1c1nccc2ccccc12
1.5%,3.3,4.7%,-4.9%,CCOC(=O)CNC(=O)CSc1nc(N)cc(N)n1
12.1%,/,1.1%,/,CCSc1nnc(SCC(=O)NC2CCCCC2)s1
2.3%,/,8.2%,-7.6%,Cc1ccc(NC(=O)CN2C(=O)COc3ccc(S(=O)(=O)N4CCCC4)cc32)cc1C
0.0%,5.0,-2.3%,0.3%,CCN(CC)c1ccc(-c2n[nH]c(=S)n2-c2ccccc2C)cc1
33.8%,/,0.0%,-2.4%,O=C(c1ccc2c(c1)OCCO2)C1CCN(C(=O)Nc2ccccc2F)CC1

Copied from the list.
Rango-impB inh, Cc1ccc(CCNC(=O)CS(=O)Cc2nc(-c3cccs3)oc2C)cc1 (stereo unspecified) : 0.0%
GLA inh pH 4.5, O=C(Nc1ccc(F)cc1F)Nc1csc2ccccc12 : 1.8

Further results.
Rango release inh,GLA inh pH 4.5,Rango-impB inh,miR-21 FLuc,compound
-8.8%,/,-4.0%,-21.0%,OC(CN1CCN(c2ccccc2F)CC1)c1ccc(F)cc1 (stereo unspecified)
-13.8%,/,2.6%,/,COc1ccc(OCc2cn(CC(=O)c3ccc(O)cc3)nn2)cc1
1.5%,/,5.7%,/,COc1ccc(OC)c(NC(=O)COC(=O)CN2C(=O)NC3(CCCC3)C2=O)c1
-11.7%,/,-1.5%,/,CC1CC(C)CN(C(=O)C(C)N2CCN(S(=O)(=O)c3ccccc3F)CC2)C1 (stereo unspecified)
-0.3%,/,-0.5%,/,CCOC(=O)[C@H]1[C@H]2COc3ccc(Br)cc3[C@@H]2N2C(=O)c3ccc(Cl)cc3NC(=O)[C@@]12C
?,/,?,-0.5%,CCC(C)[C@H](NC(=O)[C@@H]1Cc2c([nH]c3ccccc23)C2c3ccccc3C(=O)N21)C(=O)N1CCC[C@@H]1C(=O)O (stereo partly specified)
-5.5%,1.4,1.4%,-11.1%,Cn1c(=O)c2c(nc(N3CCCCC3)n2CCNC2=NCCC2)n(C)c1=O
-13.6%,-14.2,1.4%,-4.9%,COc1ccc(NC(=O)c2ccc(NC(=O)C(C)C)cc2)c([N+](=O)[O-])c1
11.4%,/,-3.9%,-2.1%,CC(C)NC(=O)C(c1ccc(F)cc1)N(C(=O)CCC(=O)Nc1ccccn1)C1CCCC1 (stereo unspecified)
12.0%,/,-0.9%,-0.1%,Cc1noc(C)c1C(=O)NCCc1ccc(S(N)(=O)=O)cc1
-23.9%,-4.9,-4.6%,4.5%,CN(CCn1ccnc1)Cc1cn(Cc2ccccc2)nc1-c1ccc2c(c1)OCO2
19.6%,-0.9,0.6%,4.6%,CCOCCn1c(-c2ccccc2)nc2ccccc21
-8.5%,/,-6.8%,/,O=C1C=C(c2cccc(O)c2)C[C@@H](c2ccc(F)cc2)C1
-4.1%,5.2,-3.0%,-7.9%,CCCCCCNCc1ccc(Br)cc1
13.5%,/,-0.6%,0.5%,COC(=O)c1sccc1NC(=O)c1ccc(C#N)cc1
-7.4%,/,0.4%,-21.6%,O=C(NC1CCSc2ccccc21)c1ccccc1Cl (stereo unspecified)
-6.5%,/,1.5%,0.7%,CCc1ccc(C)[n+](CC(=O)c2cccs2)c1
0.9%,-1.2,-5.7%,?,O=C(COc1ccc(Cl)cc1Cl)Nc1ccccn1
-5.5%,-3.5,-5.6%,-8.3%,O=C1CCCC(O)=C1C=Nc1ccc(O)cc1
15.6%,/,1.9%,-2.3%,Cc1cc(C)cc(COc2ccc3c(C)c(CC(=O)O)c(=O)oc3c2C)c1
-8.0%,4.7,0.3%,-22.8%,O=C(Nc1nnc(CCN2CCCCC2)s1)c1ccccc1
6.8%,/,-4.9%,-9.3%,CCC1CCCCN1S(=O)(=O)c1ccc(NC(=O)C2CCCO2)cc1 (stereo unspecified)
10.2%,-3.7,-3.5%,-12.7%,CC1(CC(=O)N/N=C/c2ccc(-c3ccc(C(=O)O)cc3)o2)OCCO1
-25.8%,3.9,-0.3%,1.4%,C=CCn1c(SCc2nc3sc(C(=O)O)c(C)c3c(=O)[nH]2)nnc1-c1ccccc1
0.9%,/,2.6%,-21.0%,CCCOc1ccc(/C=C2\SC(N)=NC2=O)cc1OC
-3.6%,/,-1.3%,/,Cn1c(=S)sc2ccc3ccccc3c21
-9.6%,5.1,-2.0%,-0.5%,O=S(=O)(NC12CC3CC(CC(C3)C1)C2)c1ccc(F)cc1
1.3%,/,-1.8%,/,COc1cc(-c2ccc3oc(-c4ccsc4)cc(=O)c3c2)cc(OC)c1OC
2.3%,-0.7,4.1%,0.7%,CN(Cc1ccccc1)c1ccc(N2C(=O)CCCC2=O)cc1[N+](=O)[O-]
-14.5%,/,6.0%,-5.9%,CN(Cc1cccc(F)c1)C(=O)CNS(=O)(=O)c1ccc2ccccc2c1
-2.3%,/,4.7%,/,C[C@H]1CC[C@]2(O[C@@H](CCO)C[C@@H](O)[C@@H]2O)O1
5.8%,-0.8,0.1%,-12.4%,COc1ccccc1OCCn1c(=O)oc2ccc(C)cc21
23.0%,/,2.4%,/,CC(=O)Nc1ccc(S(=O)(=O)N(CC(=O)NC2CC2)Cc2ccccc2)cc1
2.0%,-1.5,1.2%,1.3%,CC(C)NC(=O)C(OC(=O)c1ccccc1)C(OC(=O)c1ccccc1)C(=O)O (stereo unspecified)
2.4%,5.7,-4.8%,-6.9%,COc1ccc(-c2nc(N)ncc2-c2csc(C)n2)c(O)c1OC
?,5.2,?,-6.5%,CCN1CCN(c2ccc(N=Cc3ccc(O)cc3O)cc2)CC1

For convenience, 3 of the compounds above:
Rango release inh,GLA inh pH 4.5,Rango-impB inh,miR-21 FLuc,compound
2.0%,-1.5,1.2%,1.3%,CC(C)NC(=O)C(OC(=O)c1ccccc1)C(OC(=O)c1ccccc1)C(=O)O (stereo unspecified)
2.4%,5.7,-4.8%,-6.9%,COc1ccc(-c2nc(N)ncc2-c2csc(C)n2)c(O)c1OC
?,5.2,?,-6.5%,CCN1CCN(c2ccc(N=Cc3ccc(O)cc3O)cc2)CC1

The list goes on.
Rango release inh,GLA inh pH 4.5,Rango-impB inh,miR-21 FLuc,compound
?,-22.7,?,-10.9%,CCN(CC)CCN1C(=O)C(O)=C(C(=O)c2ccco2)C1c1ccccn1 (stereo unspecified)
-8.9%,-5.4,4.5%,-5.8%,COc1cc2c(cc1OC)CN(C(=O)C1(c3ccccc3)CC1)CC2
-17.0%,8.5,-1.4%,-1.7%,Cc1ccnc(SCCn2c(N3CCN(C)CC3)nc3c2c(=O)n(C)c(=O)n3C)n1
-10.2%,/,0.2%,/,COCCn1c(C)cc(C(=O)COC(=O)/C=C/c2ccc(OC)cc2OC)c1C
-21.5%,6.7,?,-30.1%,CCc1ccc2[nH]c3nc(C)cc(C)c3c(=O)c2c1
19.6%,/,-1.6%,-1.8%,COCCNC(=O)C(c1ccc(C)cc1)N(Cc1ccco1)C(=O)CCC(=O)Nc1ccccn1 (stereo unspecified)
5.4%,/,1.7%,8.8%,O=C(Nc1ccc(F)cc1)c1ccc(CN2CCc3ccccc3C2)cc1
-3.5%,/,-0.9%,-4.8%,Cc1ccc(S(=O)(=O)NCc2cc(=O)n(C)c(=O)n2C)cc1C
3.7%,-2.8,-0.1%,-2.4%,COc1ccc(CN(C)CC(=O)NC(C)c2ccccc2)c(OC)c1 (stereo unspecified)
-1.1%,/,-3.4%,/,COC(=O)c1cc(C#N)c(Oc2ccccc2)nc1C
2.7%,1.4,-0.2%,0.1%,CCCOc1ccc(N2C(=O)CC(NCCNc3ccc(S(=O)(=O)CC)cc3)C2=O)cc1 (stereo unspecified)
-4.0%,/,-3.1%,/,COc1ccc(Cl)c2sc(N(CCN(C)C)C(=O)CCS(=O)(=O)c3ccc(C)cc3)nc12
-5.4%,5.6,0.6%,0.0%,Cc1ccc(NC(=O)COC(=O)c2ccc([N+](=O)[O-])s2)c(C)c1
-2.6%,16.5,0.0%,-6.7%,O=C1c2ccccc2NC2CCCCCN12 (stereo unspecified)
3.0%,-13.1,-3.5%,-1.3%,O=C(O)C1C2C=CC(O2)C1C(=O)Nc1ccc(S(=O)(=O)Nc2ccccc2)cc1 (stereo unspecified)
?,/,6.9%,/,CCN(CC)CCNC(=O)c1ccc(NC(=O)c2cc(S(=O)(=O)N3CCCCC3)ccc2N2CCOCC2)cc1
5.1%,/,5.6%,-37.9%,CCOc1ccc(NC(=O)NCc2cccn2C)cc1
10.3%,7.0,3.9%,-8.7%,O=C(CCCCl)NC1=NN(c2ccccc2)C(=O)C1
4.0%,/,-0.2%,-33.1%,O=C(NCCCN1CCCC1=O)Nc1ccc(Cl)cc1Cl
14.2%,-1.9,-1.3%,-4.9%,CC1CSc2ccccc2NC1=S (stereo unspecified)
-14.0%,3.3,2.1%,-14.3%,C=CCn1c(=O)c2ccccc2n2nnc(C(=O)OCC)c12
-0.8%,/,-2.8%,-0.4%,COc1ccc(N2CCN(CCC(=O)c3ccc4ccccc4c3)CC2)cc1
-1.2%,/,4.9%,1.1%,COc1ccccc1N1CCN(CC(=O)Nc2nc(C)c(C(=O)N(C)C)s2)CC1
2.9%,/,8.0%,-7.1%,CC(=O)c1ccc(N2CCN(S(=O)(=O)c3c(C(=O)N4CCCCC4)c(C)n(C)c3C)CC2)cc1
1.7%,-1.3,0.0%,-10.5%,CC1CCC(NC(=O)C2CC(=O)N(c3ccc4c(c3)OCCO4)C2)CC1 (stereo unspecified)
-8.0%,-5.6,-0.2%,-7.1%,O=C(CSc1ncnc2c1cnn2CCO)Nc1cccc(C(F)(F)F)c1

Screening data (PubChem BioAssay)
